Ba CapD inh: CapD enzyme inhibition; purified CapD enzyme, fluorescence intensity read-out; hits give low values; some hits fall short of the stated cut; z-score (concentration not given with the values); 140,000 tested, 0.23% active; AID 492967;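 active = z-score under -4 in either of two replicates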;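 note: stock transfer was 100 nL into about 40 µL; score is relative to mean and spread of the plate; one replicate is shown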
AID504770: E. coli YBA685 growth inhibition, screen for V. cholerae RctB inhibitors; E. coli YBA685 rctB-dependent plasmid, OD600 growth, 3 h; hits give low values; z-score (no concentration beside the values); 130,000 tested, 0.27% active; AID 504770;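 active = z-score under -2 on both plates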;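 note: wells of about 30 µL received 100 nL stock; score is relative to mean and SD of the test wells; the first replicate is given; strong numbers were not always called active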
The depositor's hits bear a star; · = not tested or not shown.

Below each compound: Ba CapD inh | AID504770
> Cc1ccccc1N1CCN(C(=O)OCCCCCCCl)CC1
 : 0.28 | ·
> COc1ccccc1N=C1SC(C)CN1C(=O)C1CCC1 (centres undefined)
 : · | 1.2
> CC(C(=O)N1c2ccccc2C(N(C(=O)c2cccc([N+](=O)[O-])c2)c2ccccc2)CC1C)N1C(=O)c2ccccc2C1=O (centres undefined)
 : -0.24 | ·
> CS(=O)(=O)N(CC(=O)Nc1cccc(Cl)c1)c1ccccc1Cl
 : -0.24 | -0.35
> C=C1SC(Nc2ccc(F)cc2F)=NC1(CC)CC
 : 0.4 | -0.5
> N#C/C(=C\NN1CCCCC1)S(=O)(=O)c1ccc(Cl)cc1
 : -0.44 | -0.8
> COc1ccc2cc(C(=O)NC(C)=O)c(=Nc3ccccc3)oc2c1
 : 3.5 | -0.45
> CCCSc1nc2ccccc2c(=O)n1C1CCCCC1
 : 0.13 | -0.4
> CN(C)S(=O)(=O)c1ccc2c(c1)nc(CCC(=O)N1CCc3ccccc3C1)n2C
 : · | 0.05
> Cc1cc(Cl)ccc1OCC(=O)Nc1ccc(Br)cn1
 : 0.4 | 1.1
> Fc1ccc(CCc2ccc(F)cc2)cc1
 : -0.03 | ·
> COc1ccc(Oc2cccc(/C=N/NC(=O)Cc3csc(-c4ccccc4)n3)c2)cc1
 : 0.11 | ·
> CC1(C)CC(=O)C2=C(C1)N(CCO)C1=C(C(=O)CC(C)(C)C1)C2c1ccccc1
 : -0.065 | ·
> Clc1nc2cc3c(cc2s1)OCO3
 : · | 1.2
> Cc1cc(=O)oc2c(CN3CCCC3)c(O)ccc12
 : 78 | -1.6
> Cc1cccc(CN2C(=O)/C(=C\c3ccc(C(=O)NCCCN4CCN(C)CC4)cc3)Oc3ccccc32)c1
 : 50 | -1.4
> O=c1oc2ccccc2c2c1ncn2CCN1CCOCC1
 : 0.76 | -0.4
> CCCSc1nc2cc(C)c(C)cc2n1CC(O)CO (centres undefined)
 : -0.17 | -0.35
> CN(C(=O)COC(=O)c1c[nH]c(=O)[nH]c1=O)C1CCCCC1
 : · | -0.75
> C=CCN=C1SC(C)(C)C(=O)N1S(=O)(=O)c1ccc(C)cc1
 : 20 | -0.85
> Cc1cc(CN(C)C)c(O)c(C2(C)CCCCC2)c1
 : -0.52 | -0.8
> FC(F)(F)c1ccnc(NCCN=Cc2ccccc2)n1
 : 2 | -1.3
> Cc1cccc(N2C(=O)C3C4C=CC(C4)C3C2=O)c1 (centres undefined)
 : 0.24 | 0.25
> COC(=O)C1=NNC2C(=O)N(c3ccc(C)cc3C)C(=O)C12 (centres undefined)
 : -0.39 | ·
> COc1cccc(N2CCN(S(=O)(=O)c3ccc(C)c([N+](=O)[O-])c3)CC2)c1
 : -0.63 | ·
> COc1ccc(OC)c(NC(=O)C(=O)NCC2CCCO2)c1 (centres undefined)
 : -0.18 | ·
> O=C(O)CC1(CC(=O)Nc2cccc(CO)c2)CCCC1
 : · | 0
> O=C(NC1CCS(=O)(=O)C1)c1cccc(S(=O)(=O)N2CCCC2)c1 (centres undefined)
 : 0.12 | -0.5
> CCC(=NCc1ccc(C#N)cc1)c1ccccc1O
 : 0.53 | -0.6
> O=C(NC1CCS(=O)(=O)C1)c1ccc(Cl)cc1 (centres undefined)
 : -0.55 | ·

2 of these compounds, set out differently.
mol | Ba CapD inh | AID504770
Cc1cccc(N2C(=O)C3C4C=CC(C4)C3C2=O)c1 (centres undefined) | 0.24 | 0.25
COC(=O)C1=NNC2C(=O)N(c3ccc(C)cc3C)C(=O)C12 (centres undefined) | -0.39 | ·

(cont.)
Below each compound: Ba CapD inh | AID504770
> COc1ccc(CCNC(=O)c2ccco2)cc1OC
 : 6.4 | 1.2
> C=CCC1(O)C(C)C(c2ccc(Cl)cc2)NC(c2ccc(Cl)cc2)C1C (centres undefined)
 : -0.35 | ·
> Brc1ccc(CSc2nc3ccccc3o2)cc1
 : -0.33 | -1.1
> CCCCn1c(N)c(N(CC)C(=O)/C=C/c2ccc(Cl)cc2)c(=O)[nH]c1=O
 : · | -0.15
> CN1C(=O)/C(=C/c2ccc(C(=O)N3CCC(Cc4ccccc4)CC3)cc2)Oc2ccccc21
 : -0.045 | 0.25
> NC(=O)N/N=C/c1sc(N2CCCCC2)nc1-c1cccs1
 : · | -0.4
> Cc1ccc(Cl)cc1N1CCN(C(=O)CCN2C(=O)COc3ccccc32)CC1
 : 0.56 | 0.25
> CCC(C)NC(=O)N1c2ccccc2Sc2ccccc21 (centres undefined)
 : 3.1 | -1
> CC12CCC3C(CC4OCC35CCC(O)C[C@]45Br)C1CCC2O (some centres undefined)
 : -0.12 | ·
> Nc1cc(N)nc(SCC(=O)NCCN2C(=O)CSC2=O)n1
 : · | 0.5
> CCSc1ccc(C(=O)Nc2ccc(Sc3nc(OC)c4c(n3)OCC4)cc2)cc1
 : 0.44 | ·
> Cc1ccc(C)c2nc(SCC(=O)OC(C)C)c(C#N)cc12
 : · | 1.6
> CCn1c2c(c3cc(C4CCCCC4)ccc31)CCC/C2=N\O
 : 0.57 | 2.1
> OC1/C(=C/c2ccccc2)N2CCC1CC2 (centres undefined)
 : · | 0.85
> Cc1oc(-c2ccccc2F)nc1CS(=O)CC(=O)NCc1ccccn1 (centres undefined)
 : -0.67 | -0.4
> COc1ccccc1NC(=O)COC(=O)C1CCCC1
 : -0.71 | -0.55
> CN(C)c1cccc2c1c(NC(=O)c1cc(Cl)sc1Cl)nn2C
 : -1.4 | 1.1
> CCN(Cc1ccccc1)S(=O)(=O)c1ccc(-c2ccc(=O)[nH]n2)o1
 : 4.2 | -0.25
> COc1cc(S(=O)(=O)N2CCCC2c2nc3ccccc3s2)ccc1NC(C)=O (centres undefined)
 : · | 2.1
> Cc1ccc(-c2cn3cccnc3n2)cc1NC(=O)CC(C)(C)C
 : 0.48 | 0
> CN(C(=O)c1cc2sccc2s1)c1ccccc1
 : -1.2 | 0.25
> COc1cc(/C=N/NC(=O)C(CCSC)NC(=O)c2ccc(C(F)(F)F)cc2)cc(OC)c1OC (centres undefined)
 : -0.6 | ·
> Clc1ccc(N=Cc2ccc(Br)o2)cc1Cl
 : 3.8 | -0.75
> CCOC(=O)c1c(NC(=O)c2ccccc2)sc2c1CC(C(C)C)OC2 (centres undefined)
 : 15 | 0.15
> COc1ccc(C2(C(=O)NC(C)(C)CO)CCCC2)cc1OC
 : -0.14 | 0
> Nc1cc(Br)cnc1N
 : · | 0.1
> c1coc(-c2nc3sc4c(N5CCCCC5)ncnc4c3c3c2CCCC3)c1
 : 3.3 | 0.1
> CC1(C)CC(=O)c2sc(NC(=O)c3cccs3)nc2C1
 : -0.37 | -0.05
> COc1cc(C(=O)N2CCN(C(=O)c3ccc4cc[nH]c4c3)CC2)cc(OC)c1OC
 : 0.7 | ·
> CCC(=O)/C(=C(/O)c1ccccc1)c1nc2ccccc2[nH]1
 : · | 1.1
> Cc1cc(C(=O)COC(=O)c2ccco2)c(C)n1CC1CCCO1 (centres undefined)
 : · | -2.4
> O=C(OCc1nnc(-c2ccc(Cl)cc2)o1)c1ccc(S(=O)(=O)N2CCc3ccccc3C2)cc1
 : · | -0.15
> O=S1(=O)CCC(S(=O)(=O)Nc2c(F)c(F)c(F)c(F)c2F)C1 (centres undefined)
 : 0.15 | 0.5
> O=C(/C=C/c1cn(-c2ccccc2)nc1-c1cccnc1)N1CCCCC1
 : -0.66 | -3.1
> CCOc1ccc(-n2c(C)c(C(=O)OC3CCCCC3)c3cc(OC)ccc32)cc1
 : 0.14 | ·
> CCCCn1c(=O)[nH]c(=O)c2c1nc(-c1ccc(-c3ccc(S(=O)(=O)N(CC)CC)cc3)o1)n2CC(C)C
 : · | -0.5
> OC(OCc1ccc(C(O)(C(F)(F)F)C(F)(F)F)o1)(C(F)(F)F)C(F)(F)F
 : 0.12 | -0.15
> CCOC(=O)c1oc2ccc3c(c2c1C)C(=O)CC1(CCN(C(=O)OCC)CC1)O3
 : -0.1 | 2
> Cc1c(/C=C/C(=O)Nc2ccc(F)cc2)sc2ccccc12
 : -0.36 | 0.55
> C=CCN1CN(Cc2ccco2)CNC1=S
 : 0.19 | -0.45
> O/N=C/c1c(-c2ccc(Cl)cc2)[nH]c2ccccc12
 : 79 | ·
> O=C(CSc1ccc2ccccc2c1)OCC(=O)N1CCCC1
 : 3.1 | 0.35
> N#C/C(=C\c1cccs1)C(=O)N/C=N/OCc1ccc(Cl)cc1Cl
 : 0.055 | ·
> c1ccc(-n2ncc3c2ncn2nnnc32)cc1
 : 4.2 | -0.5
> COc1ccc(C)cc1NC(=O)c1cc(C(=O)Nc2cc(C)ccc2OC)n(C)n1
 : 1.3 | 0.1
> O=C1CC(c2nnc(-c3ccccc3)o2)CN1c1ccccc1 (centres undefined)
 : -0.18 | -0.4
> c1ccc(NCc2cccc3ccccc23)nc1
 : 0.45 | -0.95
> Cc1ccc(CCC(=O)O)cc1
 : 0.42 | -0.3
> COc1ccc(-c2c(C#N)c(N)nc3sc(C(=O)c4ccccc4)c(N)c23)cc1
 : -0.45 | ·
> CCOC(=O)C1=C(C)NC2=C(C(=O)CC(c3ccc(OC)c(OC)c3)C2)C1c1ccc(Br)cc1 (centres undefined)
 : 2 | ·
> CC(C)Cn1c(N)c(Br)c(=O)[nH]c1=O
 : · | 0.1
> Cc1nnsc1C(=O)Nc1ccc(C(N)=O)cc1
 : · | 0.25
> COc1ccc(OC)c(NC2=NCCS2)c1
 : -0.06 | ·
> COC(=O)Cc1[nH]n(-c2nc3ccccc3s2)c(=O)c1C(C)=O
 : 0.32 | 0.25
> Cc1ccc(S(=O)(=O)Nc2ccc(Oc3cccnc3)nc2)cc1
 : -0.54 | -0.6
> COc1cc(C2NC(=O)C3C4=C(CCC4)SC3N2)ccc1OCC(=O)Nc1ccc(C)cc1 (centres undefined)
 : · | -1.6
> CC(C)C(=O)Nc1noc2ccccc12
 : -0.77 | -0.1
> Fc1ccc(-c2cn3nc(C(F)(F)F)sc3n2)cc1
 : 0.15 | ·
> Cc1cc(Oc2ccc([N+](=O)[O-])cn2)ccc1Cl
 : -0.28 | ·
> Cc1c(N=Cc2ccc(C(C)C)cc2)c(=O)n(-c2ccccc2)n1C
 : -0.01 | ·

Profiles from above. Screens in order: Ba CapD inh	AID504770
CC(C)C(=O)Nc1noc2ccccc12 in the list: -0.77	-0.1
COc1ccc(OC)c(NC2=NCCS2)c1 in the list: -0.06	·
Fc1ccc(-c2cn3nc(C(F)(F)F)sc3n2)cc1 in the list: 0.15	·
Cc1cc(Oc2ccc([N+](=O)[O-])cn2)ccc1Cl in the list: -0.28	·

The list goes on.
Below each compound: Ba CapD inh | AID504770
> CCCCC1(c2cc(O)cc(O)c2)SCCS1
 : -0.33 | -0.2
> Cc1[nH]c(=O)[nH]c(=O)c1CSCC(=O)O
 : · | -0.4
> COc1cccc(C(=O)Nc2nnc(SCc3ccccc3)s2)c1
 : 0.35 | 0.25
> O=C(/C=C/c1cc2cccc3c2n(c1=O)CCC3)NCCc1ccccc1
 : 4.6 | ·
> CC(C)c1ccc(CN(C)CC(O)COCc2ccc3c(c2)OCO3)cc1 (centres undefined)
 : · | 0.55
> NC(=O)c1ccsc1NC(=O)c1coc2ccccc2c1=O
 : · | 1.9
> O=C1NC(=S)S/C1=C\c1ccccc1C(F)(F)F
 : -1.8 | 2.8
> c1ccc(CN2CCc3nc4ccncc4cc3C2)cc1
 : 1.4 | ·
> Cc1cc(C(F)(F)F)c(C#N)c(SCC(=O)O)n1
 : -0.57 | -0.35
> CCC(=O)N(CCN1C(=O)c2ccccc2C1=O)c1ccc(C)cc1C
 : · | 1.1
> Cc1ccc(CCNC(=O)Cn2ncc3c2-c2cc(C)ccc2OC3)cc1
 : 0.07 | -0.5
> C=CCn1c(SCC(=O)NCc2ccc3c(c2)OCO3)nc2sc3c(c2c1=O)CCC3
 : 0.34 | ·
> Cc1sc2ncn3nnnc3c2c1-c1ccccc1
 : -0.41 | 0.6
> N#Cc1cnn2c(-c3cccc(C(F)(F)F)c3)ccnc12
 : 3 | ·
> O=C(CNC(=O)c1ccc([N+](=O)[O-])cc1)NCC(=O)N1CCN(Cc2ccco2)CC1
 : -0.07 | ·
> Cc1cc(O)c(-c2[nH]ncc2-c2nc(C)cs2)c(O)c1
 : -0.83 | -0.9
> CN=C1S/C(=C/c2cccc(F)c2)C(=O)N1C
 : 0.075 | 0.1
> CC(C)NC(=O)CSCc1csc2c1CCCC2
 : 0.095 | -0.6
> COc1ccc(-c2nc3ccccc3n2OCc2c(F)cccc2Cl)cc1
 : -0.21 | ·
> CCOC(=O)c1csc(Cc2c(Cl)sc3ccc(Cl)cc23)n1
 : 0.85 | -1
> CCOC(=O)c1c(NC(=O)c2ccccc2Cl)sc(C(=O)Nc2ccccc2OCC)c1C
 : 0.38 | ·
> Cc1c(CCC(=O)O)c(=O)oc2cc3occ(-c4ccccc4)c3cc12
 : 15 | -0.75
> COc1ccc(OC)c(C2C3=C(CC(C)(C)CC3=O)Nc3ccccc3N2C(=O)C(F)(F)F)c1 (centres undefined)
 : -0.21 | ·
> Clc1ccccc1CSc1nc(NCc2ccco2)c2ccccc2n1
 : -0.31 | ·
> CCc1ccc(NC(=O)CSc2ncnc3ccccc23)cc1
 : -0.55 | -0.3
> Cc1nc2ccc(C(=O)OCC(=O)c3ccc4c(c3)OCCO4)cc2nc1C
 : · | 0.4
> COC(=O)C1=C(C)NC(C)=C(C(=O)OC)C1c1cccs1
 : 3.6 | 1.9
> CCOc1ccc(N(CC)c2nc(-c3ccc(OC)cc3)no2)cc1
 : -0.59 | -0.3
> COc1ccc(-c2noc(CCCC(=O)N(C)C)n2)cc1
 : 0.54 | -0.7
> Cc1ccc(NC(=O)Cn2cc(C#N)c3ccccc32)cc1
 : · | 1.8
> O=C(CC1CC2CCC1C2)NC1CCCCCCC1 (centres undefined)
 : 0.31 | 0.15
> Cc1nc2scc(-c3cccs3)c2c(=O)n1CC(=O)OCC#N
 : · | -0.25

Screens deposited in PubChem by ICCB-Longwood Screening Facility, Harvard Medical School.

An excerpt; rates above refer to the full screens.
